Rango dissoc inh: inhibitors of RanGTP-induced Rango-importin beta complex dissociation; O95149+P62826; 0.071% of 340,000 active; Biochemical FRET Rango-importin beta, RanGTP-induced dissociation; AID 540253; Potency, µM (highest dose often 46.1 µM), inactives show at the highest dose activity change, negative = inhibition; active means falling FRET ratio curve, often poorly fitted, with flat reads before Ran was added; inconclusive means other falling curves, or compound fluorescence or quenching; inactive means flat or rising ratio curve;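 note: potency is the fitted concentration of half-maximal effect; % of control where 0% means no effect; nearly all actives have a fitted effect of over 45% in size; -100% = wells without RanGTP and RCC1; the record marks most hits as doubtful in a second field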
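Two FRET readings bracket the reaction: one 5 min after compound meets Rango–importin beta, another 45 min after RanGTP-RCC1 (0.6 uM Ran, 0.2 uM RCC1, 2 mM GTP) is added. Only the second defines inhibition.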
GLA inh pH 4.5: inhibitors of human alpha-galactosidase A at pH 4.5 | P06280 | purified enzyme, 4-MU-alpha-Gal fluorescence, pH 4.5 | activity change, negative = inhibition, % at 105 µM | 230,000 tested, under 10 active | AID 1467; inconclusive = small, poorly fitted or top-dose-only inhibition, or a rising curve; inactive = flat fitted curve, though single readings scatter; no compound was filed as active;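 note: 0% = full activity with enzyme and -100% = basal without enzyme; dose as in the result columns while the protocol names 77 µM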
miR-21 FLuc: miR-21 reporter, rising signal; HeLa miR-21 FLuc reporter, luciferase, 48 h; Potency, µM (titrated, usually from 38.3 µM), inactives show at the top dose reporter change, positive = more light; 340,000 tested, under 10 active; AID 2288; active = well fitted rising curve with a large enough effect; inconclusive = small, poorly fitted or top-dose-only effect; inactive = no such curve, though single readings can be large or run the other way;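 note: % of control where 0% means no effect; miR-21 action dims this reporter so a rising signal means less miR-21 action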
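HeLa miR-21-FLuc reporter line, endogenous miR-21; 2000 cells/well in DMEM/10% FBS; compound titration up to ~40uM final, 48 h, 37 degree Celsius; luciferase detection reagent, 15 min lysis, CCD luminescence.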
Rango complex inh: inhibitors of Rango-importin beta complex formation; Q14974; Potency, µM (series often up to 92.2 µM), for the others: at the highest dose inhibition of complex formation; Rango CFP/YFP FRET sensor + importin beta, 45 min; 0.031% of 340,000 active; active = rising FRET ratio curve, often small or poorly fitted; inconclusive = mostly compound fluorescence or quenching in the first reads; inactive = flat curves in all reads;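 note: potency is the fitted concentration of half-maximal effect; 0% = DMSO wells and 100% = buffer wells lacking importin beta; nearly all actives have a fitted effect of over 15% in size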
Target sequence (Q14974 whole entry, looked up): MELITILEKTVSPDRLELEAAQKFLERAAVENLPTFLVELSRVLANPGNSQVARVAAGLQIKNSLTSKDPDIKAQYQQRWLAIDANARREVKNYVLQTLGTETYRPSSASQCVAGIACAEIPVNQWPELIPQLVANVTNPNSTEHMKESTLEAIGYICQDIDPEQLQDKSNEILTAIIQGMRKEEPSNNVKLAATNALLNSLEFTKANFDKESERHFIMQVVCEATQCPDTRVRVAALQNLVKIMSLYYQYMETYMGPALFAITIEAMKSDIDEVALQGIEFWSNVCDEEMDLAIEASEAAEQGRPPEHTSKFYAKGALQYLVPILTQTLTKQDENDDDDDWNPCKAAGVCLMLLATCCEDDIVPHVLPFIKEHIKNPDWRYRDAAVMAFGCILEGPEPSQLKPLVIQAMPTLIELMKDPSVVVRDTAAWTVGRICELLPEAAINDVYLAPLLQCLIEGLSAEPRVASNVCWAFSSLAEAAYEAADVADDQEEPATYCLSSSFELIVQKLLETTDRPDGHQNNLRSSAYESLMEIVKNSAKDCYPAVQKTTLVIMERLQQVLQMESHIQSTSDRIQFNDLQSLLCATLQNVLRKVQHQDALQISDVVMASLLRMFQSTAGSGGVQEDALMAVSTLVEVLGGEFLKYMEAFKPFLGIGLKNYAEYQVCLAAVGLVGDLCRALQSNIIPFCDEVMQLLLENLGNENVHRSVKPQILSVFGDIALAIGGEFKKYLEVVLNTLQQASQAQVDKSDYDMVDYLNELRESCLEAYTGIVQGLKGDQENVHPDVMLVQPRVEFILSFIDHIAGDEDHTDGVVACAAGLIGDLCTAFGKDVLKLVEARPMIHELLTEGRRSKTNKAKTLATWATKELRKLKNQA
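FRET biosensor (snurportin 1 IBB flanked by EYFP and cerulean), 50 nM, with compound 5 min, then 0.125 microM importin beta in PBS, 1 mM DTT, 0.02% Tween-20, 0.1% BSA. CFP/YFP ratio read after 45 min at room temperature; pre-read flags interference.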
Active calls of the source: *; ? = inconclusive; . = not tested or not shown.

#	Rango dissoc inh	GLA inh pH 4.5	miR-21 FLuc	Rango complex inh	SMILES
1	37%	2	-10%	-10%	N#CCO/N=C(\c1ccccc1)c1ccncc1
2	-5%	1	5%	-0.2%	O=C(NCCCl)Nc1cccc(Br)c1
3	1%	-7	-56%	-1.7%	COc1cccc(OCCSc2nnc3sc4ccccc4n23)c1
4	?	?	7%	?	CCOC(=O)c1sc2c(c1C)C(c1cccs1)C1=C(CCCC1=O)N2 (stereo unspecified)
5	15%	-9	?	-2.3%	COc1cccc(N2CCN(c3ncnc4c3cnn4-c3ccc(C)cc3C)CC2)c1
6	5%	4	-47%	-0.1%	COCCn1c(C)cc(C(=O)CN2C(=O)NC3(CCCCCCC3)C2=O)c1C
7	20%	.	.	1.9%	COc1cc(NC(=O)COC(=O)CC2CC3CCC2C3)cc(OC)c1 (stereo unspecified)
8	-12%	6	-10%	-5.7%	O=C(CSc1nc(-c2ccc(F)cc2)cc(C(F)(F)F)n1)Nc1ccc2c(c1)OCO2
9	1%	4	-5%	-4.7%	COc1ccc(N2CCN(S(=O)(=O)c3ccc(C(=O)NC4CCCC4)cc3)CC2)cc1
10	5%	2	1%	3.3%	COc1ccccc1CN1C(=O)c2ccncc2C1=O
11	-3%	3	0%	?	Cc1cccc(NC(=O)CN2C(=O)CNC2=O)c1
12	22%	-2	8%	0.5%	CCOC(=O)Cc1csc(NC(=O)CN(C)S(=O)(=O)c2ccc3c(c2)CCC(=O)N3)n1
13	-12%	.	.	-2.4%	Nc1ncnc2c1CN(Cc1ccccc1)CC2
14	-11%	4	6%	1.6%	Cc1c(N2C(=O)/C(=C/c3ccccc3)SC2=S)c(=O)n(-c2ccccc2)n1C
15	1%	4	-19%	2.4%	COc1cccc(NC(=O)c2ccncc2)c1
16	0%	-5	-2%	1.8%	COc1cc(-c2cn(S(=O)(=O)c3cccc4nsnc34)nc2N)cc(OC)c1OC
17	0%	1	0%	-1.6%	O=C(CSc1cccc[n+]1[O-])Nc1cccc(S(=O)(=O)NC2=NCCCCC2)c1
18	0%	.	1%	-0.1%	CC(=O)N1c2ccc(S(=O)(=O)N3CCCC(C(=O)Nc4ccc(C)cc4C)C3)cc2CC1C (stereo unspecified)
19	7%	.	.	-2.8%	COCCN(C(=O)COC(=O)CCSc1ccc(F)cc1)c1c(N)n(Cc2ccccc2)c(=O)[nH]c1=O
20	13%	.	4%	0.5%	Cc1ccccc1N1CCN(C2CCCN(C(=O)c3ccnn3C)C2)CC1 (stereo unspecified)
21	-10%	-3	?	1.6%	O=C(/C=C/c1ccc(Cl)c([N+](=O)[O-])c1)c1ccc(O)cc1
22	-7%	.	0%	0.2%	Cc1cc2c(NCCc3ccccc3)ncnc2s1
23	-5%	2	2%	-0.7%	Cc1cc(C(=O)OCC(=O)N2CC(C)CC(C)C2)c(C)o1 (stereo unspecified)
24	1%	.	-8%	-0.3%	O=C(O)/C=C/c1cccc(OCc2ccccc2)c1

Single records, as listed above:
`CC(=O)N1c2ccc(S(=O)(=O)N3CCCC(C(=O)Nc4ccc(C)cc4C)C3)cc2CC1C` (stereo unspecified) as listed: Rango dissoc inh = 0%; GLA inh pH 4.5 = .; miR-21 FLuc = 1%; Rango complex inh = -0.1%
`O=C(CSc1nc(-c2ccc(F)cc2)cc(C(F)(F)F)n1)Nc1ccc2c(c1)OCO2` as listed: Rango dissoc inh = -12%; GLA inh pH 4.5 = 6; miR-21 FLuc = -10%; Rango complex inh = -5.7%

Next section:
#	Rango dissoc inh	GLA inh pH 4.5	miR-21 FLuc	Rango complex inh	SMILES
25	-3%	8	-9%	-1.6%	N/C(Cc1ccc(Cl)cc1)=N\OC(=O)c1ccc2ccccc2c1
26	23%	.	-3%	1.7%	CCCNC(=O)c1ccc(N2CCC3(CC2)CC(c2ccccc2)=NO3)c(NC(=O)c2cccc(C)c2)c1
27	12%	7	26%	-4.2%	COc1ccc(Cc2[nH]n3c(=O)c(Cl)c(C)nc3c2-c2ccccc2)cc1
28	2%	1	-56%	-0.4%	O=C(NCCc1ccccc1)c1ccc(Br)o1
29	-1%	-5	1%	-2.0%	O=C(NCc1ccc2c(c1)OCO2)c1c(F)c(F)c(F)c(F)c1F
30	1%	4	-38%	1.2%	COc1ccc(/C=C2\SC(=O)N(CCNC(=O)C3CC4C=CC3C4)C2=O)cc1 (stereo unspecified)
31	15%	.	.	-5.7%	CN(C(=O)c1cccc(NC(=O)C2CCN(C(=O)OC(C)(C)C)CC2)c1)C1CCC1
32	9%	.	-4%	2.9%	O=C(CSc1nncn1-c1ccccc1)N1CCCC1
33	-5%	-1	-9%	-1.6%	Cc1c(C(=O)C(C)C)n(C)c2ccccc12
34	?	.	-3%	?	CCN1CCN(c2nc3c(C)cccn3c(=O)c2/C=C(\C#N)C(=O)NC)CC1
35	-2%	-2	-16%	-0.1%	COc1ccc(N=Cc2ccc(-c3ccccc3)o2)cc1
36	-24%	-1	-10%	?	Nc1nc(=S)c2ncn(C3CCCC3)c2[nH]1
37	-6%	.	-13%	-0.5%	O=C(Nc1ccc(C(=O)N2CCCCC2)cc1)c1ccccc1Cl
38	0%	-4	2%	0.1%	CCOC(=O)c1c(NC(=O)C2CC=CCC2C(=O)O)sc(C)c1CC (stereo unspecified)
39	6%	.	2%	2.9%	COCCOC(=O)C1=C(N)OC2=C(C(=O)CCC2)C1c1cccnc1 (stereo unspecified)
40	-15%	-6	-7%	-3.0%	CCOC(=O)c1cnc2c(C)cccc2c1Nc1cccc(C(=O)O)c1
41	-13%	.	3%	0.3%	Cc1ccc(CN2CCSc3ccc(C(=O)NCCCN4CCOCC4)cc32)cc1
42	-2%	-1	0%	1.3%	COC(=O)C1NN=C(C(=O)c2ccc(Br)cc2)C1c1cccc(Br)c1 (stereo unspecified)
43	-5%	10	0%	3.0%	OCCCc1nc2ccccc2[nH]1
44	5%	.	-14%	-5.7%	CN(C)CCCN(C(=O)c1ccc(S(=O)(=O)N2CCCCCC2)cc1)c1nc2c(F)cccc2s1

In the list so far, these have a halogen:
#	Rango dissoc inh	GLA inh pH 4.5	miR-21 FLuc	Rango complex inh	SMILES
2	-5%	1	5%	-0.2%	O=C(NCCCl)Nc1cccc(Br)c1
8	-12%	6	-10%	-5.7%	O=C(CSc1nc(-c2ccc(F)cc2)cc(C(F)(F)F)n1)Nc1ccc2c(c1)OCO2
19	7%	.	.	-2.8%	COCCN(C(=O)COC(=O)CCSc1ccc(F)cc1)c1c(N)n(Cc2ccccc2)c(=O)[nH]c1=O
21	-10%	-3	?	1.6%	O=C(/C=C/c1ccc(Cl)c([N+](=O)[O-])c1)c1ccc(O)cc1
25	-3%	8	-9%	-1.6%	N/C(Cc1ccc(Cl)cc1)=N\OC(=O)c1ccc2ccccc2c1
27	12%	7	26%	-4.2%	COc1ccc(Cc2[nH]n3c(=O)c(Cl)c(C)nc3c2-c2ccccc2)cc1
28	2%	1	-56%	-0.4%	O=C(NCCc1ccccc1)c1ccc(Br)o1
29	-1%	-5	1%	-2.0%	O=C(NCc1ccc2c(c1)OCO2)c1c(F)c(F)c(F)c(F)c1F
37	-6%	.	-13%	-0.5%	O=C(Nc1ccc(C(=O)N2CCCCC2)cc1)c1ccccc1Cl
42	-2%	-1	0%	1.3%	COC(=O)C1NN=C(C(=O)c2ccc(Br)cc2)C1c1cccc(Br)c1 (stereo unspecified)
44	5%	.	-14%	-5.7%	CN(C)CCCN(C(=O)c1ccc(S(=O)(=O)N2CCCCCC2)cc1)c1nc2c(F)cccc2s1

High-throughput results from PubChem.

The list is partial; count on the stated rates, not on these rows.
